# Screening results from PubChem BioAssay.
# Six1-Eya2 blk – qHTS Assay for Inhibitors of the Six1/Eya2 Interaction; Homeobox protein SIX1 (Homo sapiens) + Protein phosphatase EYA2 (Homo sapiens), …; AlphaScreen GST-Six1/His-Eya2 binding, biochemical; stronger effect = lower value; control for the full effect not named in the record; activity change, % (test concentration not listed); 360,000 tested, 0.56% active; AID 651725, 2012; in the data active = activity change below about -65%; inconclusive = about -30% to -65%; inactive = above about -30%; further: on the % scale 0 is the no-effect control and ±100 the full control effect; compound concentration not given in the record
#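 Homogeneous AlphaScreen proximity assay pairing GST-Six1 with His-tagged Eya2 (added as 5X mix: 250 nM and 500 nM) in 50 mM Tris pH 8.0, 300 mM NaCl, 1 mM TCEP. Glutathione donor and nickel acceptor beads; 1 h, 37 °C, dark.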
# TRPML1 blocker – qHTS for Inhibitors of the Human Mucolipin Transient Receptor Potential 1 (TRPML1); Mucolipin-1 (Homo sapiens), Q9GZU1; TRPML1-inducible cells, Ca2+ dye fluorescence, FDSS; stronger effect = lower value; inhibition of EC80 agonist-evoked calcium signal; activity change, negative = inhibition, % (concentration not given with the values); 390,000 tested, 0.02% active; in the data active means activity change below about -50%; inconclusive means about -30% to -50%; inactive means above about -30%;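 further: stimulus is agonist 54-4 at its EC80 concentration; on the % scale 0 is the no-effect control and ±100 the full control effect; compound concentration not given in the record; the text of the record puts the active cut at -80%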
# Target sequence (Q9GZU1 whole entry, looked up): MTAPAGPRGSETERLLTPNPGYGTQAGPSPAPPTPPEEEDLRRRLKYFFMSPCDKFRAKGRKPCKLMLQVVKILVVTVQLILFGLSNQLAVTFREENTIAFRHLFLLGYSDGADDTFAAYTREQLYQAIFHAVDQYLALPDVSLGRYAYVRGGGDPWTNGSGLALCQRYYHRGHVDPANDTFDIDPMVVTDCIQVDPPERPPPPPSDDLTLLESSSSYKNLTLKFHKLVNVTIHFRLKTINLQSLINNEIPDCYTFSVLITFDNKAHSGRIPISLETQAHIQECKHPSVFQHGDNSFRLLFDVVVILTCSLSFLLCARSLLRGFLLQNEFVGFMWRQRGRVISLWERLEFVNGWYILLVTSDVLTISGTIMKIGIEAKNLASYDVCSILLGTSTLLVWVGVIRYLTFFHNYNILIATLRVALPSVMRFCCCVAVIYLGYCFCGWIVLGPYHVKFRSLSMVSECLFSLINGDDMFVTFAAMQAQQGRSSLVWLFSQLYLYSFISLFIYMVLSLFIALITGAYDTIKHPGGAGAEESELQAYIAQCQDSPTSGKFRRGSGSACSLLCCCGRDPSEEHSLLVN
#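 TRPML1-DL cells, Tet-induced overnight (~16 h, 37 °C) at 1,500 cells/well, were loaded with Ca8 no-wash dye plus quencher for 45-90 min at room temperature. Compounds were pinned during FDSS kinetic reading; agonist 54-4 at EC80 (4 uM final) then added.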
# D2 agonist – Beta-Arrestin HTS for Positive Allosteric Modulators of the Human D2 Dopamine Receptor: Agonists; DiscoveRx PathHunter D2 beta-arrestin, luminescence, 90 min; 100% = 57 uM dopamine signal; D(2) dopamine receptor (Homo sapiens), P14416; activation, % (test concentration not listed); 360,000 tested, 0.084% active; AID 624465, 2012; in the data active = activation above about 40%; inconclusive = about 15% to 40%; inactive = below about 15%; further: compound concentration not given in the record; the text of the record calls up to 30% inactive
# Target sequence (P14416 whole entry, looked up): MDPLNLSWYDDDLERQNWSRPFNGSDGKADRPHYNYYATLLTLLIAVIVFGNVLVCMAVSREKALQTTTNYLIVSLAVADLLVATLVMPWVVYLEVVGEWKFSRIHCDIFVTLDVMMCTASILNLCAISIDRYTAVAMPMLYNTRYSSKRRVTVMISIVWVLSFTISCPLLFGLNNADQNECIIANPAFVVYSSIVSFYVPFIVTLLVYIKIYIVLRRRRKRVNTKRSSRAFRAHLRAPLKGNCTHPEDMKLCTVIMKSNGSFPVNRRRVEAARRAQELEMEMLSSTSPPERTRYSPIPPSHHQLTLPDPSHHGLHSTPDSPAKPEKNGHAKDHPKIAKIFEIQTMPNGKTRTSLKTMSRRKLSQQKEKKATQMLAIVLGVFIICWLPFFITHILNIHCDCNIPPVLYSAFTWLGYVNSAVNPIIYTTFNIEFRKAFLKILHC
#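 Agonist mode: compounds alone added to overnight-plated D2 PathHunter cells for 90 min at 37 C, with 57 uM final dopamine (EC100) defining full response. Beta-arrestin recruitment detected by chemiluminescent reagent, read after 1 h at ambient temperature.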
# TRPML1 ag – qHTS for Agonists of the Human Mucolipin Transient Receptor Potential 1 (TRPML1) | Mucolipin-1 (Homo sapiens), Q9GZU1 | TRPML1-expressing cells, Ca2+ dye fluorescence, FDSS; host cell line not named in the record; reference of the full effect not given here | activation, % (concentration not given with the values) | 410,000 tested, 0.12% active; in the data active = activation above about 50%; inconclusive = about 30% to 50%; inactive = below about 30%; further: 0% is about no effect; the text of the record puts the active cut at 80%
#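 Cells: TRPML1-DL, 1X Tet inducer, ~16 h at 37 degrees C/5% CO2. Dye: ABD Ca8 no-wash + quencher, 45-90 min RT. Read: 10 s baseline, compound add, 110 s agonist phase; 54-4 EC80 (4uM final), 110 s antagonist phase.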
# PINK1 expr mod – A Quantitative High throughput Screen to Identify Chemical Modulators of PINK1 Expression; 410,000 tested, 0.2% active; PINK1 immunofluorescence, high-content cytometry, 24 h; Potency, µM (titrated, usually from 76.6 µM), inactives show top-dose activation (PINK1 increase), actives largely listed as activators; active = well fitted activation curve with a large enough effect; inconclusive = small, poorly fitted or top-dose-only effect; inactive = flat fitted curve, though single readings scatter; cell line not stated here;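 further: potency means the concentration at half of the fitted maximal effect; % of control where 0% means no effect; nearly all actives have a fitted effect of over 65% in size; a mitochondrial uncoupler was the plate control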
#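 Readout is PINK1 immunofluorescence, quantified alongside mitochondrial, cell and nuclear markers by laser-scanning microplate cytometry. Cells from a stable line were exposed to compound titrations (5 concentrations) for 24 hours, with CCCP controls.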
# CtBP-E1A blk – qHTS Assay for Inhibitors of the CtBP/E1A Interaction; AID 651724, 2012; 340,000 tested, 0.49% active; AlphaScreen GST-E1A/His-CtBP binding, 1536-well; stronger effect = lower value; control for the full effect not named in the record; activity change, % (concentration not given with the values); CtBP / adenovirus E1A interaction (AlphaScreen); in the data active means activity change below about -65%; inconclusive means about -30% to -65%; inactive means above about -30%; further: on the % scale 0 is the no-effect control and ±100 the full control effect
#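 GST-E1A and His-tagged CtBP (125 nM each as 5X stock) were preincubated with pin-transferred compound for 2 h at 37 °C in the dark, then glutathione donor and nickel acceptor beads were added for 1 h before AlphaScreen reading.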
# Starred values were filed as active, the others as inactive; ? = inconclusive; . = no result given; & = joins results of further samples.
SMILES,Six1-Eya2 blk,TRPML1 blocker,D2 agonist,TRPML1 ag,PINK1 expr mod,CtBP-E1A blk
O=C1N/C(=N\N=C\c2ccco2)SC1Cc1ccc(F)cc1 (centres undefined),-2,32,2.6,1.2,-0.9%,.
Cc1cc(Cl)ccc1NC(=O)c1cccc(NC(=O)N2CCSc3ncccc32)c1,.,-3,.,1.4,-1.1%,.
CCCCN(C(=O)COC(=O)CSc1ccc([N+](=O)[O-])cc1)c1c(N)n(CCC)c(=O)[nH]c1=O,3,4,-1.7,-0.6,1.5%,6
Cc1ccc(CNC(=O)C2CCCN(S(=O)(=O)c3c(C)[nH]c(=O)[nH]c3=O)C2)cc1 (centres undefined),0,2,-4.8,-0.2,-1.6%,1
COC(=O)c1ccccc1NC(=O)C1=CC(c2cccs2)=NS(=O)(=O)N1C,-29,11&19,-0.7,-0.1&0.5,0.8%&-2.0%,?
COc1cc(C2c3cc4c(cc3OC(N3CCOCC3)C2C)OCO4)cc(OC)c1OC(C)=O (centres undefined),?,10,-2.0,0.8,10.0%,-12
O=c1c2cn[nH]c2nc(SCc2cc(=O)n3cc(Br)ccc3n2)n1-c1ccc(Br)cc1,-7,13,1.8,4.2,-0.1%,-25
COc1ccc(NC(=O)CC(C(=O)O)C(C)c2ccccc2)cc1 (centres undefined),-2,0,5.6,0.0,-0.1%,-1
CCc1ccc(-n2c(=O)c3ccccc3n(CC(=O)NCCc3ccc(OC)c(OC)c3)c2=O)cc1,.,16,.,0.4,0.9%,.
O=C1COc2cc(S(=O)(=O)CCC(=O)N3CCCCC3)c(Cl)cc2N1,1,43,-3.5,0.1,3.0%,0
NC(=S)N/N=C\c1ccccc1OCc1ccccc1,-1,0,-4.1,1.8,0.6%,-12
O=C(c1sc2ccccc2c1Cl)N1CCN(c2ccc(F)cc2)CC1,-9,69,-1.2,1.6,2.5%,-2
CCOc1ccccc1NC(=S)Nc1ncccc1C,?,36,-1.2,0.9,6.0%,?
CC1CN(C(=O)CCC(=O)NCc2ccccc2)c2cc(Cl)ccc2O1 (centres undefined),4,-8&4,-4.0,0.0&0.7,2.3%&-0.3%,4
COC(=O)C1(Cc2ccccc2)NC(c2ccccc2C)C2C(=O)N(c3ccc4c(c3)OCO4)C(=O)C21 (centres undefined),13,-19,-3.9,0.2,-0.3%,9
CCOC(=O)c1c2c(n(-c3ccc(OC)cc3)c1C)C(=O)C(=O)c1ccccc1-2,?,17,?,0.9,0.7%,0
CC(C)(C)C(=O)Nc1ccc(C(=O)NNC(=O)c2ccccc2)cc1,6,-15,1.8,0.4,-1.4%,0
Cc1nc(CNS(=O)(=O)c2cc(F)ccc2F)cs1,-8,-2,-0.8,0.0,.,-8
CCOC(=O)c1c(NC(=O)CN2CCCc3ccccc32)sc(C)c1C,-22,-1,-3.1,0.9,7.4%,-17
CNC(=O)CC1C(=O)N(C)C(=S)N1NC(=O)c1ccc(Cl)cc1 (centres undefined),-15,45,-0.3,-0.3,1.9%,-5
CCc1cc2c(SCC(=O)c3ccc(C)cc3)ncnc2s1,14,21,3.6,0.3,2.1%,2
C/C(=N/NS(=O)(=O)c1ccc(Cl)cc1)c1cccc(O)c1,4,-11,-3.6,-0.5,1.0%,5
O=[N+]([O-])c1ccc(OC/C=C2\Oc3ccc([N+](=O)[O-])cc3C2N2CCOCC2)cc1 (centres undefined),0,45,-2.9,0.1,-0.4%,-14
Cc1ccc(-c2ccc(=O)n(CC(=O)NC(C)c3ccccc3)n2)cc1 (centres undefined),.,-15,.,0.8,2.8%,.
O=C1CCC[C@@H]2[C@@H](Cc3ccccc3)[C@H](N3CCN(c4ccccc4)CC3)C[C@@H]3CCN1[C@@H]32,-24,21,-1.3,-0.4,13%,-1
COc1ccc(OC)c(CN2C(=O)CCC2(C)C(=O)NC2CCCCCC2)c1 (centres undefined),-1,-11,0.9,-0.4,1.2%,0
C#Cc1cccc(C(=O)NC2CCCN(C3Cc4ccccc4C3)C2)c1 (centres undefined),-4,4,-3.8,0.8,0.2%,.
Cc1noc(NS(=O)(=O)c2ccc(N/C=C/C(=O)c3ccccc3)cc2)c1C,-12,3,-4.7,-0.2,?,1
CON(C)C(=O)CC(CN(Cc1ccccc1)C(=O)OC(C)(C)C)c1ccc(Cl)cc1 (centres undefined),4,-8,1.9,-0.2,?,3
O=C1COc2ccc(S(=O)(=O)Nc3ccc4c(c3)OCO4)cc2N1,-1,-19,1.0,-0.1,-0.1%,0
O=C(Nc1cccc(-c2nc3ccccc3o2)c1)c1ccc(-c2ccc(Br)cc2)o1,.,0,.,0.0,4.2%,.
Cc1nc(-c2ccc(C)c(S(=O)(=O)N3CCC(C(=O)Nc4ccc(Cl)cc4)CC3)c2)no1,.,13,.,1.8,-0.8%,.
CC(=O)N(C)c1ccc(NC(=O)Nc2ccccc2C)cc1,14,-1,2.4,0.5,1.4%,0
S=C(Nc1ccc(N2CCOCC2)cc1)Nc1ccc2snnc2c1,-7,0,-2.7,0.7,2.3%,.
Cc1ccc(NC(=O)CN2CCN(CCN=CC3=C(O)CC(c4ccccc4)CC3=O)CC2)cc1 (centres undefined),-2,5,-0.7,2.6,1.2%,-1
COC(=O)CS(=O)(=O)c1ccsc1C(=O)Nc1ccc(F)cc1,-7,-17,3.5,2.5,-2.0%,0
CSc1nc2ccccc2cc1/C=C(\C#N)c1ccc(Cl)cc1Cl,-4,-6,0.4,0.5,3.7%,-2
CC1(C)CC(=O)C(N=Nc2ccc(OC(F)F)cc2)=C(O)C1,2,6,-7.0,0.0,0.8%,-4
Clc1ccc(CNc2nc(CN3CCOCC3)nc3scc(-c4ccccc4)c23)cc1,-27,62,-3.5,3.1,-1.3%,-19
CC(NC(=O)C1CC2CCCC(C1)C2=O)c1ccccc1 (centres undefined),-4,4,-1.8,-0.7,-0.2%,7
COc1ccc(OC)c(NS(=O)(=O)c2ccc3c(c2)CCCN3C(=O)C2CCC2)c1,.,2,.,0.6,2.1%,.
COCCCNC(=O)CCCn1c(=O)c2ccccc2n(CC(=O)Nc2c(C)cc(C)cc2C)c1=O,3,-18,-0.4,-0.3,2.8%,6
COc1ccc2c(c1)C1=NN(/C(C)=C/C(C)=O)C(c3ccc(F)cc3)C1CC2 (centres undefined),7,70,6.0,-0.4,2.4%,11
CCN(C1CCCCC1)S(=O)(=O)c1c(C)n(C)c(=O)n(C)c1=O,11,-9,1.1,0.4,-3.0%,9
Cc1ccc(-c2cc([C@H]3[C@H]4C=CC[C@@H](C)[C@@H]4C(=O)N3Cc3ccccc3)ccc2F)cc1,-4,59,-3.5,1.3,?,10
Cc1ccc(OCCSc2nc3ccccc3n2CC(=O)N2CCCCC2)cc1C,.,41,.,1.6,10.0%,.
COc1ccc(N(CC(=O)Nc2cccc(C(F)(F)F)c2)S(C)(=O)=O)cc1,-3,5,-3.6,1.2,6.0%,10
CN1C(=O)Cc2cc(S(=O)(=O)CCC(=O)N3CCN(c4cccc(Cl)c4)CC3)ccc21,.,-10,.,-0.4,3.5%,.
CN1c2ccc(C=O)c3c(C=O)ccc(c23)N(C)C1(C)C,-1,-16,?,3.0,-1.8%,-15
CC1CCCCN1S(=O)(=O)c1cnc(Cl)c(Br)c1 (centres undefined),9,32,-4.0,-0.4,-2.2%,-4

# Entries of single compounds as entered above. Order of values: Six1-Eya2 blk, TRPML1 blocker, D2 agonist, TRPML1 ag, PINK1 expr mod, CtBP-E1A blk
# Results for Cc1ccc(OCCSc2nc3ccccc3n2CC(=O)N2CCCCC2)cc1C = ., 41, ., 1.6, 10.0%, .
# Results for Cc1ccc(-c2cc([C@H]3[C@H]4C=CC[C@@H](C)[C@@H]4C(=O)N3Cc3ccccc3)ccc2F)cc1 = -4, 59, -3.5, 1.3, ?, 10
# Results for S=C(Nc1ccc(N2CCOCC2)cc1)Nc1ccc2snnc2c1 = -7, 0, -2.7, 0.7, 2.3%, .

# Next section
SMILES,Six1-Eya2 blk,TRPML1 blocker,D2 agonist,TRPML1 ag,PINK1 expr mod,CtBP-E1A blk
CC(C)n1c(=O)c2ccccc2n1Cc1cn(Cc2cccs2)nn1,9,.,7.5,-0.7,-0.4%,-15
Cc1ccccc1NC(=O)/C=C/c1cccs1,0,-1,-2.1,0.9,-0.1%,2
CCN(CC)C(=O)C(=O)N/N=C/c1ccc(C(=O)O)cc1,1,-3,-5.4,-0.6,-1.3%,-13
COc1ccc(/C(C)=N/OCC(=O)N=Nc2c(O)[nH]c3ccccc23)cc1,13,-11,-7.6,-0.4,10%,8
CCOc1ccc(NC(=O)c2ccc(OC)cc2)cc1,0,5,-2.6,-0.2,-2.2%,45
CCc1ccc(NC(=O)c2ccc3c(O)c(S(=O)(=O)c4ccc(Cl)cc4)c(=O)[nH]c3c2)cc1,.,15,.,-0.8,0.6%,.
Nc1cccnc1Sc1ccc([N+](=O)[O-])cn1,-1,26,-4.5,1.6,4.1%,-18
CCCn1c(SCC(=O)NCc2ccco2)nnc1-c1ccncc1,-1,2,1.5,0.1,-0.1%,-2
COc1ccc2ccccc2c1CNCCCN1CCOCC1,-1,25,0.2,-0.6,0.6%,11
C=COC(=O)CSc1snc(SCC(=O)OC)c1C#N,-11,15,-2.4,2.4,1.3%,-1
COc1cccc(CNC(=O)CC2C(=O)NCCN2CCCc2ccccc2)c1 (centres undefined),9,-12,-6.1,-0.7,-1.6%,.
CCN1CCN(C(c2cccs2)C(C)NC(=O)c2cccc(OC)c2)CC1 (centres undefined),0,18,-3.8,0.4,-1.5%,0
O=C(NCCc1ccccc1F)C1CCC(=O)N(CCCN2CCCC2=O)C1 (centres undefined),0,-2,-4.2,-0.6,1.1%,11
Cc1ccc(N2C(=O)CSC23C(=O)N(CC(=O)Nc2ccc(C(C)C)cc2)c2ccccc23)cc1C (centres undefined),.,1,.,2.0,-3.0%,.
CC(=O)NC(CC(=O)NC12CC3CC(CC(C3)C1)C2)c1ccccc1 (centres undefined),5,19,-8.7,-0.8,0.4%,10
Cc1cc(C)n(-c2ccc(C(=O)Nc3sccc3C(N)=O)cc2)n1,-3,29,2.6,1.4,-1.4%,-5
